# Screening results: PubChem BioAssay, several laboratories
# Mtb growth – M. tuberculosis H37Rv growth inhibitors, H37Rv strain (AID 1626); M. tuberculosis H37Rv growth inhibition; higher % means a stronger effect; one-dose inhibition, % at 10 µM; IC50 in µM for titrated hits; actives 0.95% (n = 220,000);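 active means confirmed in a dose series; inconclusive means inhibition above 80% but not taken into the dose series; inactive means below 80% or under 30% at every dose of the series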;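 further: bacteria incubated seven days before Alamar blue readout; 0% = bacteria only wells and 100% = bacteria with antibiotic wells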
# RecA intein inh – blocks M. tuberculosis RecA intein splicing. actives 0.75% (n = 290,000). cell-free RecA intein splicing, fluorescence. AID 2221. inhibition, %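 (about 9 µM by stock and volumes)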; in the data active means inhibition above about 30%; inconclusive means no clear call, values can overlap the other calls;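 further: 0% = vehicle wells and 100% = reference inhibitor control wells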
# Target sequence (P9WHJ3 whole entry, looked up): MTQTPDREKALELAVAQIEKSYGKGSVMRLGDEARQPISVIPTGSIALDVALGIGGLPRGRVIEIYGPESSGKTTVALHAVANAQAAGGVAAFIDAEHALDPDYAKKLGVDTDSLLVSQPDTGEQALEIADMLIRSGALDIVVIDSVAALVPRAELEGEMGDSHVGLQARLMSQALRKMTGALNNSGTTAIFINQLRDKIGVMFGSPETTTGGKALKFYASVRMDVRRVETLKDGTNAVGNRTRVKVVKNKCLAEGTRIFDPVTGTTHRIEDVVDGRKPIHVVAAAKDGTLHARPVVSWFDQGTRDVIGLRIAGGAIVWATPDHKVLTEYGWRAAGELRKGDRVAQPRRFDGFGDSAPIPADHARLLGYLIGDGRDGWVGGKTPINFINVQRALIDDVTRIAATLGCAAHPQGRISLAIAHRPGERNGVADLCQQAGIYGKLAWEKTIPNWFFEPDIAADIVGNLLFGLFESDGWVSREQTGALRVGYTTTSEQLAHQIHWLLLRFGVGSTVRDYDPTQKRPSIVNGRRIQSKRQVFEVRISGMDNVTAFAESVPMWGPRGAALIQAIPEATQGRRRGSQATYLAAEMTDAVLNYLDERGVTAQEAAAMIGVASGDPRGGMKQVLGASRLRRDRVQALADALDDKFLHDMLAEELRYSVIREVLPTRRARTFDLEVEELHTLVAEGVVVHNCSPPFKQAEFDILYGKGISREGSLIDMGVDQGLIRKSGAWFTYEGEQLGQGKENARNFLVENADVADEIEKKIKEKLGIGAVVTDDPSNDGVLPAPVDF
# Mtb betalactam – beta-lactam sensitization of Mtb H37Rv; actives 0.27% (n = 330,000); AID 434955; inhibition, % at 25 µM; M. tuberculosis H37Rv growth with meropenem, percent inhibition; hits of this screen are not shown here;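 active means about 74% or more and at least 40 points above the plate without the antibiotic, then above 30% in a dose series; inconclusive means first-round hits that could not be retested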;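 further: growth measured after seven days incubation then overnight dye step; 0% = bacteria only wells and 100% = bacteria with antibiotic; twin plates without the antibiotic show which effects depend on it; some results filed as inactive read as strong as hits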
# YopH PTP inh – blocks Yersinia enterocolitica YopH tyrosine phosphatase | fluorescence Ex485/Em525 | AID 898 | inhibition, %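 (about 10 µM by stock and volumes)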 | actives 0.16% (n = 140,000);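 active means inhibition of 50% or more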;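 further: controls were vehicle for no effect and minimum signal wells for full effect; inactives centre near -20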
# Arbovirus anti – blocks arbovirus infection. arbovirus infection cell-based antiviral screen. inhibition, % at 10 µM. actives 0.37% (n = 200,000). AID 1251;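 active means inhibition from about 30%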;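 further: bluetongue infection of BSR cells; cell survival read as ATP light after 72 h; 0% = infected wells without compound and 100% = uninfected wells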
# Arbovirus anti repeat – further read-out of Arbovirus anti, marked with its call; inhibition, %; measured here: 10K subset replicate screen; many hits read low in the repeat;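 first of two repeat runs on a subset; 0% = infected and 100% = uninfected wells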
# The depositor's hits bear a star; u = inconclusive; x = not tested or not shown. Not all compounds are listed, so the mix of outcomes need not match the whole.
SMILES,Mtb growth,RecA intein inh,Mtb betalactam,YopH PTP inh,Arbovirus anti,others
COc1ccc(C(=O)Nc2nccs2)cc1[N+](=O)[O-],8%,-2.1,7,-15,-10,
COc1cc(/C=C/C(=O)OCC(=O)Nc2ccc(S(=O)(=O)N3CCCC3)cc2)ccc1O,-3%,2.5,94,-24,4,
COc1cc(N2CCCC2)ccc1[N+](=O)[O-],-1%,4.8,4,-35,11,
Cc1ccccc1Cn1c(=N)n(CC(=O)c2ccc([N+](=O)[O-])cc2)c2ccccc21,0%,x,7,-27,-10,
CCN(CC)CC(=O)NC12CC3CC(CC(C3)C1)C2,-7%,-0.4,-3,-16,-3,
O=C1CC(c2ccco2)CC(O)=C1C=NCC1NCCc2ccccc21 (stereo not drawn),1%,0.3,31,-27,-2,
Cn1cccc1/C=C1\SC(=S)N(NC(=O)c2ccc(F)cc2)C1=O,-2%,-1.9,4,x,x,
CCc1ccc(NC(=O)C(=O)NNC(=O)c2cccs2)cc1,x,-2.0,95,x,x,
Cc1c(C(=O)N2CCN(C)CC2)oc2c1C(=O)CC(C)(C)C2,-4%,-3.9,-6,16,11,
Cc1cc(C)c2oc(-c3ccc(C)c(NC(=S)NC(=O)/C=C/c4ccco4)c3)nc2c1,24%,2.3,96,-21,14,
Cc1cccc(NC(=O)c2cc(S(=O)(=O)N3CCOCC3)cn2C)c1C,x,-3.1,-1,x,x,
CN(C)c1nc(C#N)nc(N(C)C)n1,9%,-1.7,-6,x,16,
CCCc1nc2c(sc3nc4c(cc32)COC(C)(C)C4)c(=O)n1CCN(CC)CC,0%,8.1,-10,x,-2,
Cn1nc(-c2ccccc2)c2cc([N+](=O)[O-])ccc21,x,0.6,2,x,x,
CCCCC(=O)N1C/C=C\C(c2ccc(OC)cc2)N(Cc2ccc(F)cc2)C(=O)C1 (stereo not drawn),2%,-0.3,-5,x,x,
COc1cccc(CN2CCN(C(=O)COc3ccc4ccccc4c3)CC2)c1,7%,0.9,1,-26,3,
COc1cc(/C=C2/S/C(=N/S(=O)(=O)Cc3ccccc3)NC2=O)c([N+](=O)[O-])cc1OC,-17%,-14,-5,x,x,
Cc1ccc(C(=O)N/C(=C\c2sccc2C)C(=O)NCc2ccco2)cc1,-3%,2.3,-8,-28,-4,
O=C1/C(=C\c2cccnc2)CCc2ccccc21,x,15,93,-27,16,
Cc1cc2n(n1)C(c1sccc1C)Nc1c(C)cccc1-2 (stereo not drawn),6%,-0.2,-4,-25,-4,
Cc1ccc2nc(-c3ccccn3)cc(C(=O)Nc3ccc(S(=O)(=O)N4CCOCC4)cc3)c2c1,32%,4.2,3,x,-5,
CCN(CC)C(=O)Cn1cc(C(=O)C(=O)N2CCN(Cc3ccc4c(c3)OCO4)CC2)c2ccccc21,x,1.2,-11,x,x,
CSCC[C@H](NC(=O)c1cc2c([nH]c3ccccc32)c(-c2ccccc2)n1)C(=O)O,x,1.2,1,x,x,
O=C(N/N=C\c1c(O)ccc2ccccc12)c1ccc(S(=O)(=O)N2CCCCC2)cc1,-1%,-42,13,-28,-28,
O=C(NCc1ccccc1)c1cccc(COc2cc(Cl)ccc2Cl)c1,-5%,-0.4,-1,-23,-9,
Cc1cc(C(=O)N/N=C/c2cc(Br)ccc2OC(=O)c2ccccc2Cl)n[nH]1,-7%,9.2,47,x,-34,
O=C(C1CCCO1)N1CCC(c2nc3ccccc3[nH]2)CC1 (stereo not drawn),-7%,1.7,-5,-27,4,
O=C(C1CCC(=O)N(C2CCCC2)C1)N1CCN(Cc2cccc(F)c2)CC1 (stereo not drawn),x,1.4,-5,x,x,
COc1cc(/C=C/C(=O)OCC(=O)Nc2cc(S(=O)(=O)N(C)C)ccc2Cl)ccc1O,7%,-9.6,-2,x,x,
COc1ccc(N/C=C/C(=O)c2ccc(Cl)cc2)cc1,88%,-4.9,82,-30,-4,
CCN(C(=S)Nc1ccc(Oc2ccccc2)cc1)c1ccccc1,u,1.8,-5,4,2,
CN(c1cccc(NC(=O)CN(c2cccc(Cl)c2)S(=O)(=O)c2ccccc2)c1)S(C)(=O)=O,3%,4.0,-7,-25,8,
C/C(=N/NC(=O)c1ccncc1)c1c[nH]c2ccccc12,u,-1.1,99,x,3,
O=C(O)CCn1cc(/C=C\C(=O)c2ccc(Cl)cc2)c(-c2cccc(Br)c2)n1,-1%,3.9,0,-37,-20,
Cc1ccc(C(C)C)c(OCC(=O)OCC(=O)NC2CCS(=O)(=O)C2)c1 (stereo not drawn),x,-0.8,0,x,x,
O=C1NC(Cc2ccccc2)C(=O)N1CC(=O)N1CCCc2ccccc21 (stereo not drawn),-2%,2.8,2,x,2,
O=C(Nc1ccc(OCc2ccccc2)cc1)Nc1ccccc1C(=O)NCCCN1CCOCC1,-7%,-0.8,-4,x,x,
N#C/C(=C\c1ccccc1Br)C(=O)NC1CC1,x,4.9,-3,x,x,
Cc1c(C(=O)N(C)CCCCN2CCOCC2)oc2c(F)cccc12,x,0.3,-1,x,x,
CC(C)NC(=O)c1ccc(C2SCC(=O)N2Cc2ccccc2)cc1 (stereo not drawn),-6%,x,10,-15,7,

# Three entries picked at random from the list so far:
SMILES,Mtb growth,RecA intein inh,Mtb betalactam,YopH PTP inh,Arbovirus anti,others
Cc1ccc2nc(-c3ccccn3)cc(C(=O)Nc3ccc(S(=O)(=O)N4CCOCC4)cc3)c2c1,32%,4.2,3,x,-5,
O=C(C1CCCO1)N1CCC(c2nc3ccccc3[nH]2)CC1 (stereo not drawn),-7%,1.7,-5,-27,4,
N#C/C(=C\c1ccccc1Br)C(=O)NC1CC1,x,4.9,-3,x,x,

# The listing continues.
SMILES,Mtb growth,RecA intein inh,Mtb betalactam,YopH PTP inh,Arbovirus anti,others
CCN(CC)C(=O)Cn1cnc2sc(C(=O)N3CCN(Cc4ccc5c(c4)OCO5)CC3)c(C)c2c1=O,7%,-1.2,-5,x,6,
CC(=O)c1c(C)[nH]c(C(=O)CSc2ncnc3sc(-c4ccccc4)cc23)c1C,11%,0.9,6,-19,-9,
O=C(NCc1cccs1)c1cnc2sccn2c1=O,-8%,-1.2,2,-36,-1,Arbovirus anti repeat=2
CCOc1ccc(NC(=O)CN(c2ccc([N+](=O)[O-])cc2)S(=O)(=O)c2ccccc2)cc1,10%,2.6,-4,-2,-12,
COc1ccc(CCNC(=O)CSc2c[nH]c3ccccc23)cc1OC,25%,2.3,-2,x,9,
CCOc1nc(-c2ccccc2)ncc1Oc1ccccc1,x,12,9,x,x,
Cc1cccc(NC(=O)CCN2CCN(C/C=C/c3ccccc3)CC2)c1,2%,1.3,4,-1,-5,
CCOC(=O)CSc1nnc(-c2ccc(Cl)cc2Cl)o1,<0.39µM*,-0.5,100,-9,-4,
COc1ccc(NC(=O)c2ccco2)cc1S(=O)(=O)N1CCCCC1,x,0.2,11,x,x,
CCCSc1nc(-c2ccccc2)cc(C(F)(F)F)c1C#N,8%,1.6,-3,-36,0,
CCCN(CC1CC1)C(=S)NC(=O)c1ccc(S(=O)(=O)N2CCOCC2)cc1,17%,0.6,9,x,-3,
COc1ccc(NC(=O)CSc2nc(N)c(C#N)cc2C#N)cc1,-5%,-6.5,-3,2,5,
CC(C)C(c1nnnn1Cc1ccc(F)cc1)N1CCSCC1 (stereo not drawn),5%,1.4,6,-24,-1,
CCNC(=S)/N=C(/Nc1ccccc1)Nc1nc(C)cc(C)n1,0%,-0.4,-7,x,x,
CCOP(=O)(OCC)C(NC(=O)Nc1ccccc1)c1ccccc1 (stereo not drawn),-2%,2.0,5,-16,13,
O=C(c1sc2ccccc2c1Cl)N1CCN(c2ccc(F)cc2)CC1,1%,10,30,-37,-1,
COc1ccc(C(=O)NC(C)c2nnc(SCC(=O)Nc3nc4ccccc4s3)n2C)cc1 (stereo not drawn),0%,-4.4,-25,-14,13,
CCOC(=O)CNC(=O)CSc1nnc(Cn2cnc3ccccc32)n1C,-16%,x,-10,-19,1,
CCCc1nc2oc3ccccc3c(=O)c2c(=O)n1-c1ccccc1,4%,x,-1,x,x,
COc1ccc(C(=O)Nc2ccc3ccccc3c2)c(OC)c1,x,11,84,x,x,

# Entries from the list above that have a thiophene ring, fused or not (8):
SMILES,Mtb growth,RecA intein inh,Mtb betalactam,YopH PTP inh,Arbovirus anti,others
CCc1ccc(NC(=O)C(=O)NNC(=O)c2cccs2)cc1,x,-2.0,95,x,x,
CCCc1nc2c(sc3nc4c(cc32)COC(C)(C)C4)c(=O)n1CCN(CC)CC,0%,8.1,-10,x,-2,
Cc1ccc(C(=O)N/C(=C\c2sccc2C)C(=O)NCc2ccco2)cc1,-3%,2.3,-8,-28,-4,
Cc1cc2n(n1)C(c1sccc1C)Nc1c(C)cccc1-2 (stereo not drawn),6%,-0.2,-4,-25,-4,
CCN(CC)C(=O)Cn1cnc2sc(C(=O)N3CCN(Cc4ccc5c(c4)OCO5)CC3)c(C)c2c1=O,7%,-1.2,-5,x,6,
CC(=O)c1c(C)[nH]c(C(=O)CSc2ncnc3sc(-c4ccccc4)cc23)c1C,11%,0.9,6,-19,-9,
O=C(NCc1cccs1)c1cnc2sccn2c1=O,-8%,-1.2,2,-36,-1,Arbovirus anti repeat=2
O=C(c1sc2ccccc2c1Cl)N1CCN(c2ccc(F)cc2)CC1,1%,10,30,-37,-1,

# Entries from the list above that have a cyano group, in the order listed:
SMILES,Mtb growth,RecA intein inh,Mtb betalactam,YopH PTP inh,Arbovirus anti,others
CN(C)c1nc(C#N)nc(N(C)C)n1,9%,-1.7,-6,x,16,
N#C/C(=C\c1ccccc1Br)C(=O)NC1CC1,x,4.9,-3,x,x,
CCCSc1nc(-c2ccccc2)cc(C(F)(F)F)c1C#N,8%,1.6,-3,-36,0,
COc1ccc(NC(=O)CSc2nc(N)c(C#N)cc2C#N)cc1,-5%,-6.5,-3,2,5,

# (list continues)
SMILES,Mtb growth,RecA intein inh,Mtb betalactam,YopH PTP inh,Arbovirus anti,others
Cc1ccc(-c2nnc(-c3ccncc3)n2-c2ccc(C)cc2)cc1,-3%,-1.0,4,-44,5,
O=C(O)CCC(=O)N1N=C(c2ccccc2)CC1c1ccc2c(c1)OCO2 (stereo not drawn),x,-0.7,-11,x,x,
O=C(c1ccc2c(=O)n(CC3CCCO3)c(=S)[nH]c2c1)N1CCN(c2ccccc2)CC1 (stereo not drawn),-8%,1.4,-7,-46,-4,
COc1ccc(CNC(=O)c2c(O)c3cc(OC)c(OC)cc3[nH]c2=O)cc1OC,x,-2.5,6,x,x,
CCC(=O)Nc1nc(C)nc(C)c1C(C)=O,-2%,0.3,5,-25,6,
CC(=O)c1ccc(N2CCN(S(=O)(=O)c3ccc4c(c3)NC(=O)CO4)CC2)cc1,x,0.6,5,x,x,
C#CCNC(=O)C1=C[C@@H](C2CCCCC2)[C@H](CCCO)[C@@H](OCC)O1,-11%,2.4,-4,x,2,
Cc1ccccc1C(=O)N/C(=C/c1ccc(-c2cccnc2Cl)o1)C(=O)NCCCN1CCN(C)CC1,3%,-2.0,-7,-11,0,
Cc1sc(NC(=O)C2C3CCC(C3)C2C(=O)O)c(C(N)=O)c1-c1ccc(C(C)(C)C)cc1 (stereo not drawn),6%,9.8,-1,-4,14,
CCN1CCCC(NC(=O)c2scc3c2CCCC3)C1 (stereo not drawn),1%,1.1,4,11,9,Arbovirus anti repeat=2
CC1(C)CC(=O)C(C2c3ccccc3Oc3ccccc32)C(=O)C1,3%,x,1,-25,7,
COc1cc(OC)c(C(=O)Nc2ncn[nH]2)cc1OC,5%,-1.9,0,-5,x,
